Mtb bLac sens: beta-lactam sensitization of Mtb H37Rv. 0.27% of 330,000 active. AID 434955. inhibition, % at 25 µM. M. tuberculosis H37Rv growth with meropenem, percent inhibition; hits of this screen are not shown here;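 active = about 74% or more and at least 40 points above the plate without the antibiotic, then above 30% in a dose series; inconclusive = first-round hits that could not be retested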;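 also: growth measured after seven days incubation then overnight dye step; 0% = bacteria only wells and 100% = bacteria with antibiotic; twin plates without the antibiotic show which effects depend on it; some results filed as inactive read as strong as hits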
Arbovirus anti: antivirals against arbovirus infection | inhibition, % at 10 µM | arbovirus infection cell-based antiviral screen | 0.37% of 200,000 active;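 active = inhibition from about 30%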;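 also: bluetongue infection of BSR cells; cell survival read as ATP light after 72 h; 0% = infected wells without compound and 100% = uninfected wells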
RecA intein inh: Mtb RecA intein splicing inhibition. cell-free RecA intein splicing, fluorescence. AID 2221. 0.75% of 290,000 active. P9WHJ3. inhibition, %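 (about 9 µM by stock and volumes)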; in the data active = inhibition above about 30%; inconclusive = no clear call, values can overlap the other calls;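 also: 0% = vehicle wells and 100% = reference inhibitor control wells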
Target sequence (P9WHJ3 whole entry, looked up): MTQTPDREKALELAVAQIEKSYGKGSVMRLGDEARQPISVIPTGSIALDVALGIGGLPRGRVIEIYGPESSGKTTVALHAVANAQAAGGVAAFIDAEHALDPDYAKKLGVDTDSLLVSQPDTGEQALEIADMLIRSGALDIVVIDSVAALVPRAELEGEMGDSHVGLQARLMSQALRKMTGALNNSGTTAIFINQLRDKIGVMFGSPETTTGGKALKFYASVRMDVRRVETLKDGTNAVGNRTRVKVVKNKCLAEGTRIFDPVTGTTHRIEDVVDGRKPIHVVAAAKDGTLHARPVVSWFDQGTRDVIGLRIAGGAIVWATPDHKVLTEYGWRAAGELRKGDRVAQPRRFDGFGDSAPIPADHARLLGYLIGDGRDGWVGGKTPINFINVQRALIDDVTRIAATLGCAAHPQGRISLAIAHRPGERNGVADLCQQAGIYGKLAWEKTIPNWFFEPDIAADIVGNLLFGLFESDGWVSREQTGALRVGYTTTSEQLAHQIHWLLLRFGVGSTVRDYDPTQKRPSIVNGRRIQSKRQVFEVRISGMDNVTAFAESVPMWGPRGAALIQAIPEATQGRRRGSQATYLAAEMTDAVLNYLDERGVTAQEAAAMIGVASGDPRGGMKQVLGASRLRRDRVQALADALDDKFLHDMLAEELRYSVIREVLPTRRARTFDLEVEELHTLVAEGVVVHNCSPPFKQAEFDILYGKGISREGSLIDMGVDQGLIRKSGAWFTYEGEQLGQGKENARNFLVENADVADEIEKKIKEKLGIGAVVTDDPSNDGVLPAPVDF
Mtb H37Rv: M. tuberculosis H37Rv growth inhibitors, H37Rv strain (AID 1626) | M. tuberculosis H37Rv growth inhibition; higher % means a stronger effect | inhibition, % at 10 µM; hits with a dose series show IC50 in µM | 0.95% of 220,000 active;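 active = confirmed in a dose series; inconclusive = inhibition above 80% but not taken into the dose series; inactive = below 80% or under 30% at every dose of the series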;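 also: bacteria incubated seven days before Alamar blue readout; 0% = bacteria only wells and 100% = bacteria with antibiotic wells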
YopH PTP inh: inhibitors of Yersinia enterocolitica YopH tyrosine phosphatase; fluorescence Ex485/Em525; AID 898; inhibition, %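 (about 10 µM by stock and volumes)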; 0.16% of 140,000 active;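 active = inhibition of 50% or more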;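 also: controls were vehicle for no effect and minimum signal wells for full effect; inactives centre near -20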
Arbovirus anti repeat: second read-out of Arbovirus anti, no call of its own (marks repeat the call); inhibition, %; measured here: 10K subset replicate screen; many hits read low in the repeat;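 first of two repeat runs on a subset; 0% = infected and 100% = uninfected wells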
* hit, by the source's call; ? = inconclusive; / = not tested or not shown; & = joins results of further samples.

SMILES | Mtb bLac sens | Arbovirus anti | RecA intein inh | Mtb H37Rv | YopH PTP inh | others
Cc1cc(F)ccc1S(=O)(=O)N1CCCOC1CNC(=O)C(=O)NCCN1CCOCC1 (stereo not given) | -12 | / | 2.1 | / | /
COc1ccccc1CNC(=O)C1CCN(S(=O)(=O)c2ccc3c(c2)C(C)(C)C(=O)N3C)CC1 | 1 | / | 0.2 | / | /
Cc1cc2c([nH]c3ccccc32)c2c1OC(C)(C)C=C2 | -1 | / | 1.9 | 10% | /
CCOC(=O)c1ccc(CC2SC(N)=NC2=O)cc1 (stereo not given) | -1 | / | 1.0 | / | /
COc1ccccc1C(=O)N/C(=C\c1cn(S(=O)(=O)N(C)C)c2ccccc12)C(=O)N1CCOCC1 | 5 | / | -2.7 | / | /
Nc1ccc(Cl)c(S(=O)(=O)Nc2cccc(Cl)c2)c1 | 10 | 25 | -4.8 | 6% | /
O=C(O)c1ccccc1NS(=O)(=O)c1cccc(-n2sc3ccccc3c2=O)c1 | -3 | / | 3.1 | / | /
CCOc1cccc2sc(N(CCCN(C)C)C(=O)Cc3ccccc3)nc12 | -6 | -9 | -3.9 | 4% | /
CN(c1ccccc1)S(=O)(=O)c1ccc(NC(=O)C2CC2)cc1 | ? | / | 2.3 | / | /
CO/N=C(\Cn1ncc(N2CCOCC2)c(Br)c1=O)c1ccc(Cl)cc1 | -8 | -5 | 6.0 | 17% | /

Random excerpt: 3 records from the list, in no set order.
SMILES | Mtb bLac sens | Arbovirus anti | RecA intein inh | Mtb H37Rv | YopH PTP inh | others
CO/N=C(\Cn1ncc(N2CCOCC2)c(Br)c1=O)c1ccc(Cl)cc1 | -8 | -5 | 6.0 | 17% | /
O=C(O)c1ccccc1NS(=O)(=O)c1cccc(-n2sc3ccccc3c2=O)c1 | -3 | / | 3.1 | / | /
Nc1ccc(Cl)c(S(=O)(=O)Nc2cccc(Cl)c2)c1 | 10 | 25 | -4.8 | 6% | /

The list goes on:
SMILES | Mtb bLac sens | Arbovirus anti | RecA intein inh | Mtb H37Rv | YopH PTP inh | others
Cn1c2c(c(=O)n(C)c1=O)C(C(F)(F)F)(C(F)(F)F)N=C(c1ccc(Cl)cc1)N2 | 98 | -14 | 1.2 | 4.9µM* | -22
CC(=O)/C=C\c1cn(-c2ncc(C(F)(F)F)cc2Cl)c2ccccc12 | 48 | 9 | 6.8 | 22% | -46
CCOc1ccc(C(CC(=O)O)NC(=O)C23CC4CC(CC(C4)C2)C3)cc1 (stereo not given) | -1 | 1 | -0.5 | -5% | -34
CCn1cc(CN2CCC(n3nccc3NC(=O)CCc3ccccc3)CC2)cn1 | -7 | / | 1.1 | / | /
N#C/C(C(=O)c1ccccc1)=C1/CCCCCN1 | -9 | -11 | 0.6 | 6% | -20
COc1ccc(N(CC(=O)NCCSc2ccccc2)S(C)(=O)=O)cc1 | -6 | 0 | -2.0 | -10% | /
O=C(CCC(=O)N/N=C/c1ccc(Br)o1)N/N=C/c1ccc(Br)o1 | -5 | / | -0.2 | / | /
COc1ccccc1N1CCN(C(=O)Nc2ccc(F)c(Cl)c2)CC1 | -2 | -12 | 3.1 | 10% | /
Cn1cc(CCC(=O)NCCCc2ccccc2)c2ccccc21 | 1 | / | -1.9 | / | /
CCOC(=O)c1ccc(NC=C2C(=O)OC3(CCCCC3)OC2=O)cc1 | 97 | -3 | 0.3 | ? | 16
C[N+]1(C2CCC3CCCC2C3O)CCCCC1 (stereo not given) | -2 | 11 | 0.1 | 3% | /
CC(C)NC(=O)C(C)Oc1ccc(S(=O)(=O)NCc2ccc3c(c2)OCO3)cc1 (stereo not given) | 5 | / | 1.1 | / | /
CCOC(=O)Cc1nnn(CC(=O)OCC)n1 | 0 | -5 | -5.8 | -7% | -17
CCOc1ccc(/C=C2\SC(=S)N(N3C(=O)C4CC4C3=O)C2=O)cc1 (stereo not given) | -6 | 12 | -3.1 | 3% | /
Cc1nc2scc(C)n2c(=O)c1S(=O)(=O)NC(C)c1ccccc1 (stereo not given) | 2 | / | -1.5 | / | /
O=C(N/N=C/c1cc2c(cc1Cl)OCO2)c1cccc(Br)c1 | -10 | / | -0.3 | / | /
CCOc1ccccc1/C=N/NC(=O)CNC(=O)c1ccc(S(=O)(=O)N2CCOCC2)cc1 | 1 | -3 | -1.6 | 1% | 13
CCCOc1ccc(OCCOCCN2CCc3ccccc3C2)cc1 | 10 | -3 | -1.6 | -1% | -22
C=CCNc1nc(N)c([N+](=O)[O-])c(NCc2ccccc2)n1 | 2 | / | -1.1 | / | /
COc1cc(/C=C2\SC(=N)N(c3ccc(F)cc3)C2=O)ccc1O | 3 | 5 | / | 8% | /
CCCCOCCCNC(=O)C1CCCCC1 | 1 | 7 | / | 2% | -43
O=C(Nc1ccc(F)cc1)N(Cc1cccs1)Cc1cc2cc3c(cc2[nH]c1=O)OCO3 | -2 | -4 | -3.7 | 6% | -33
CN1CCN(Cc2cc(=O)n3ccsc3n2)CC1 | 2 | / | -1.0 | / | /
CCOC(=O)c1ccc(-n2c(=O)[nH]c3ccccc3c2=O)cc1 | -5 | 1 | -2.0 | 14% | 0
Cc1cc(C)c(C#N)c(Oc2ccc(F)cc2)n1 | -4 | 3 | 0.6 | 4% | 6
COc1cc(/C=N/NC(=O)c2cccnc2)ccc1OC(=O)c1ccc([N+](=O)[O-])cc1 | 18 | 0 | 3.3 | -8% | /
Cc1cc(OCC(=O)NC2CCN(Cc3ccccc3)CC2)c2c(C)cc(=O)oc2c1 | -1 | / | 1.0 | / | /
NC(=O)c1ccc(NC(=O)CN2CCOCC2)cc1 | -4 | / | 1.1 | / | /
CCCOC(c1ccccc1)(c1ccccc1)C(Oc1nc(C)cc(C)n1)C(=O)O (stereo not given) | -5 | / | 0.6 | / | /
C[c-]1[c-](C)[c-](C)[c-](C)[c-]1C.[Fe].c1cc2nccc(N3CCCC3)[c-]2c1 (stereo not given) | -5&-1 | / | 21 | -2%&-1% | /
CC(=O)Oc1ccc(NC(=O)C2CCCCC2)c(C(=O)O)c1 | 3 | 2 | -9.3 | 1% | -17
Cc1ccc(NC(=S)c2ccncc2)c(C)c1 | -2 | / | 1.4 | / | /
CC1=NN(c2cccc(Cl)c2)C(=O)C1 | -5 | / | 94* | -9% | /
Cc1ccc(-n2nc(-c3ccccc3)cc2Nc2ccccc2N)cc1 | 14 | -2 | 9.9 | 7% | -43
Cc1cc(=O)n2nc(N3CCCC(C(=O)NCCC4=CCCCC4)C3)sc2n1 (stereo not given) | -6 | 7 | -2.7 | 2% | -30
CC(OC(=O)C1CCC1)C(=O)Nc1cc(Cl)cc(Cl)c1 (stereo not given) | -12 | / | 2.6 | / | /
Cn1ncc(C#N)c1/N=C/N(Cc1ccccc1)Cc1ccccc1 | 9 | -24 | 19 | 20% | 3
O=C(Nc1ccc(Cl)c([N+](=O)[O-])c1)c1ccncc1 | 3 | 0 | -1.6 | 6% | -14
N#CCCn1cc(/C=C(\C#N)c2nc3ccccc3s2)c(-c2ccc(F)cc2)n1 | 1 | -20 | -15 | 1% | -13
CC(C)(C)c1ccc(OCCCC(=O)NNC(=O)c2ccccc2O)cc1 | 3 | / | 2.4 | / | /
Cc1c(C(=O)O)oc2c1ccc1ccccc12 | 0 | 7 | -0.4 | -6% | -58
COc1ccc(CCC(=O)N2CCCC(Nc3ccc(C)c(C)c3)C2)cc1OC (stereo not given) | -4 | / | -0.3 | / | /
O=S1(=O)CCOC[C@H](CC2CCCCC2)N1Cc1ccc(Cl)cc1 | -5 | / | -3.6 | / | /
O=C1C2CC=CCC2C(=O)N1c1ccc(NCCc2cccc(F)c2)c([N+](=O)[O-])c1 (stereo not given) | 0 | -4 | -0.7 | 4% | -1
O=C(Nc1ccccc1)N1C(=O)C2(OCCO2)c2ccccc21 | -5 | 2 | 1.6 | 10% | 35
CCOc1cc(N2CCOCC2)c(OCC)cc1NC(=O)c1ccc(OCc2c(C)noc2C)c(OC)c1 | 10 | -9 | -7.7 | ? | -15
O=C(Nc1nnc(C2CC2)s1)c1cccc(S(=O)(=O)N2CCc3ccccc32)c1 | -3 | -12 | 0.4 | 0% | -59
c1ccc2c(-c3cc(C4CCNCC4)[nH]n3)cccc2c1 | 16 | -36 | 1.1 | 3% | /
C=CCSc1ccsc1C(=O)O | 5 | 2 | -0.6 | -5% | -3
COc1cccc2cc(C(=O)C3=C(O)C(=O)N(CCN4CCOCC4)C3c3ccc(C)o3)oc12 (stereo not given) | 1 | / | -2.3 | / | /

Already shown: 4 of the compounds above.
SMILES | Mtb bLac sens | Arbovirus anti | RecA intein inh | Mtb H37Rv | YopH PTP inh | others
Cc1c(C(=O)O)oc2c1ccc1ccccc12 | 0 | 7 | -0.4 | -6% | -58
COc1ccc(CCC(=O)N2CCCC(Nc3ccc(C)c(C)c3)C2)cc1OC (stereo not given) | -4 | / | -0.3 | / | /
O=S1(=O)CCOC[C@H](CC2CCCCC2)N1Cc1ccc(Cl)cc1 | -5 | / | -3.6 | / | /
O=C1C2CC=CCC2C(=O)N1c1ccc(NCCc2cccc(F)c2)c([N+](=O)[O-])c1 (stereo not given) | 0 | -4 | -0.7 | 4% | -1

Next compounds:
SMILES | Mtb bLac sens | Arbovirus anti | RecA intein inh | Mtb H37Rv | YopH PTP inh | others
COc1ccnc(Oc2ccc(F)cc2)c1-c1ncn[nH]1 | 4 | 8 | -2.5 | 2% | /
O=C(NC1CCCC1)C1CCC(CNS(=O)(=O)c2cccs2)CC1 (stereo not given) | 0 | -2 | 0.4 | -6% | -23
CCn1c(CNc2ccc(Cl)cc2)nnc1SCC(=O)OC1CCCCC1 | 100 | 4 | 2.5 | ? | -7
CCOC(=O)c1ccc(NC(=O)CCOc2ccccc2)cc1 | 96 | 8 | 2.6 | ? | -12
CN1CCN(C(=O)c2ccc(CNS(=O)(=O)c3ccc(F)c(Cl)c3)cc2)CC1 | -7 | / | -1.3 | / | /
COc1cc(NC(=O)c2ccc(Br)cc2)ccc1NC(=O)c1cc2ccccc2o1 | 11 | / | 1.8 | / | /
Brc1ccc(CSc2nnc(-c3ccccn3)n2Cc2ccco2)cc1 | 4 | -11 | 30 | 9% | -33 | Arbovirus anti repeat=-23
Cc1cccc(C(=O)NC(=S)NNC(=O)c2ccccc2Cl)c1 | 97 | -32 | 6.9 | ? | -25
Cc1cc(NC(=O)CCC2CCCCC2)no1 | -2 | 0 | 0.0 | -7% | 16
COc1ccccc1N1CC(C(=O)Nc2nnc(SCc3cccnc3)s2)CC1=O (stereo not given) | -3 | / | 1.0 | / | /
CCc1nnc(NS(=O)(=O)c2ccc(NC(=S)NC(=O)c3ccc(Br)cc3)cc2)s1 | 4 | 17 | 15 | 17% | -23
O=C(c1ccc(S(=O)(=O)Nc2ccccc2F)cc1)N1CCN(c2ccccc2O)CC1 | -2 | / | 1.9 | / | /
Cc1cccc(NC(=O)Cc2coc3ccc4ccccc4c23)n1 | 4 | -4 | 5.4 | 3% | -14
CC(=O)C1=C(C)NC(=O)NC1c1ccccc1 (stereo not given) | -5 | 0 | -0.6 | -2% | -13 | Arbovirus anti repeat=-2
CC(=O)Nc1nonc1NC(=O)COc1ccccc1 | -4 | -4 | 3.1 | -6% | /
O=C(NCc1csc(-c2ccccc2)n1)c1ccco1 | -3 | -3 | -1.0 | 5% | -39
O=c1c2ccccc2nc(-c2ccc(Cl)cc2Cl)n1O | 57 | 0 | 0.6 | 1% | /
COc1ccc(C(=O)Nc2ccc(NC(=O)C3CCCCC3)nc2)cc1 | -4 | / | 1.7 | / | /
CN(C)CCNC(=O)CN1C(=O)COc2ccc(C(C)(C)C)cc21 | -7 | 1 | -0.5 | -4% | -45
CC(C)CNC(=S)NC(=O)c1ccccc1Cl | -3 | -2 | -15 | 8% | -26
Cc1ccc(CN2[C@@H](CC(C)C)COCCS2(=O)=O)cc1 | -3 | / | -0.1 | -6% | /
COC(=O)n1c(=O)oc2ccc(S(=O)(=O)N3CCCCC3)cc21 | -3 | / | 0.0 | -7% | /
CCOC(=O)C1CCN(C(=O)c2c(-c3ccccc3)noc2C)CC1 | -6 | -3 | -2.7 | -2% | /
O=C(COc1ccccc1)NNc1nc2c(F)cc(F)cc2s1 | 89 | 25 | -0.5 | 62% | /
O=C(NCc1nc2ccccc2[nH]1)c1c(F)c(F)c(F)c(F)c1F | -1 | 8 | 0.8 | -1% | /
Cc1cccc(CN2CCC(CNC(=O)Cn3ncc4c([nH]c5ccccc54)c3=O)CC2)c1 | 12 | / | -0.9 | / | /
OC1CCN(C(=S)Nc2ccc(Oc3ccccc3)cc2)CC1 | -8 | 1 | -0.7 | 8% | /
COc1cc(C2=NC(CO)(CO)CO2)cc(OC)c1OC | -7 | 4 | / | 3% | /
CCC(CC)NCCOC(=O)c1ccc([N+](=O)[O-])cc1 | -3 | / | 4.0 | -5% | /
CCOC1=NN(c2ccccc2)C(=O)/C1=C\N(C)C | 6 | 17 | 1.1 | / | /
COc1ccc(CNC(=O)Cn2cc([N+](=O)[O-])nc2C)cc1 | ? | 3 | 0.6 | -3% | -13

The list is partial (hit frequency here may not be typical).
